High-throughput results (PubChem BioAssay)
A647 fluor = qHTS Assay for Spectroscopic Profiling in A647 Spectral Region. AID 592, 2007. Compound fluorescence, A647 channel (570/671 nm), Tris buffer. 59,000 tested, under 10 active. max dye-equivalent concentration, M; active means above 1 µM dye equivalent; inconclusive means 0.1 to 1 µM; inactive means 0.1 µM or less;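 note: values scaled relative to a standard on each plate; highest value over a series up to 38 µM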
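Fluorescence read (570 nm ex, 671 nm em) after 15 min RT incubation of compounds in 100 mM Tris buffer, pH 8.0; values expressed as dye-equivalent concentration against a six-point A647 standard series on each plate.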
Resorufin autofl = qHTS Assay for Spectroscopic Profiling in Resorufin Spectral Region; Compound fluorescence, resorufin region 547/598 nm, buffer; hits give high values; max dye-equivalent concentration, M; 59,000 compounds, 0.04% hits; AID 588, 2007; active = above 10 nM dye equivalent; inconclusive = 1 to 10 nM; inactive = 1 nM or less; a few of its hits are not listed in these tables; note: highest value over a series up to 38 µM
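Tris 100 mM pH 8.0; compound added, 15 min RT; CCD imager read, ex 547 nm/em 598 nm; signal normalized to resorufin standard curve (six concentrations per plate) as dye-equivalent concentration.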
AID923 = qHTS Assay for Allosteric/Competitive Inhibitors of Caspase-1: Spectroscopic Profiling in AFC Spectral Region; compound fluorescence, AFC spectral region (405/520 nm); almost no hit is shown here; Potency, µM (top dose mostly 57.5 µM), for the others: top-dose fluorescence increase, most hits filed as activators; 75,000 compounds, 1.1% hits; AID 923, 2007; active = well fitted activation curve with a large enough effect; inconclusive = small, poorly fitted or top-dose-only effect;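 note: potency is the fitted concentration of half-maximal effect; 0% is about no effect; scaled to a free AFC standard on each plate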
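Titrations up to 57 uM read every 20 sec for 3 min (405/520 nm) with 50 nM caspase 1 and 5 uM Ac-WEHD-AFC, pH 7.5 HEPES buffer. Fluorescence-vs-time intercept gave baseline, scaled against on-plate AFC standard.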
TSHR agonist = qHTS Assay for Agonists of the Thyroid Stimulating Hormone Receptor | Thyrotropin receptor (Homo sapiens), P16473 | 73,000 compounds, 0.48% hits | HEK293-CNG-TSHR cells (CNG channel as cAMP sensor), membrane potential dye, cAMP | Potency, µM (series often up to 57.1 µM), without a hit: top-dose activation, most hits filed as activators; active = well fitted activation curve of enough size with the parental cells flat; inconclusive = any curve in the parental cells; inactive = parental cells flat and receptor cells flat or falling; note: potency is the fitted concentration of half-maximal effect; % of control where 0% means no effect; weak receptor curves with flat parental cells got no call and are not listed
Target sequence (P16473 whole entry, looked up): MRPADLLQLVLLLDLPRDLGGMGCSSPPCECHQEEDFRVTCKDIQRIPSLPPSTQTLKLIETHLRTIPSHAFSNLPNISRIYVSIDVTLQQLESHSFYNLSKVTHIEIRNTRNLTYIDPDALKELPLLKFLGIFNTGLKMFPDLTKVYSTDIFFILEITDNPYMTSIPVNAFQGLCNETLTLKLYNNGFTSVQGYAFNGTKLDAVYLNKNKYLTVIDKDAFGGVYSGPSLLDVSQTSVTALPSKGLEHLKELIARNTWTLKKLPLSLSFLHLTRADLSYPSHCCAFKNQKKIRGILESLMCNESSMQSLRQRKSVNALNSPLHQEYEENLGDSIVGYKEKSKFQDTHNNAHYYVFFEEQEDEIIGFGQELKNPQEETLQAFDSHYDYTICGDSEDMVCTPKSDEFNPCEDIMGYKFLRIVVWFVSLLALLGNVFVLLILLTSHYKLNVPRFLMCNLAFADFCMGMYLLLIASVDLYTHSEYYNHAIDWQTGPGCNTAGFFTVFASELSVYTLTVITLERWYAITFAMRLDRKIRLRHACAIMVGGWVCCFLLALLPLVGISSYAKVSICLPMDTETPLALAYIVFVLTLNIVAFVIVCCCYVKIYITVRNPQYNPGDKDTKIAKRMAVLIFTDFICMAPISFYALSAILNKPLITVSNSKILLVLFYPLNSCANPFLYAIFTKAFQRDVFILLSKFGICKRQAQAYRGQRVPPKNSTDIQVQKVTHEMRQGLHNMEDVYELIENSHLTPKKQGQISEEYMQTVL
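HEK 293 cells stably expressing TSHR and a cAMP-gated CNG channel; parental CNG-only cells as counterscreen. Cells preloaded 60 min with membrane potential dye plus 100 uM RO 20-1724, then compound 30 min; fluorescence read at 590 nm.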
A488 fluor = qHTS Assay for Spectroscopic Profiling in A488 Spectral Region; compound autofluorescence, A488 spectral region, dye equivalency; hits give high values; AID 591, 2007; max dye equivalency, M; 59,000 compounds, 0.1% hits; active = above 10 nM dye equivalent; inconclusive = 1 to 10 nM; inactive = 1 nM or less; about half of its hits are not listed in these tables;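 note: highest value over a series up to 38 µM; compound alone in buffer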
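Compounds pin-transferred into 100 mM Tris buffer, pH 8.0, incubated 15 min at room temperature, then imaged with 480 nm excitation/540 nm emission filters. Fluorescence converted to Alexa 488 dye-equivalent concentration via an on-plate six-point A488 standard curve.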
The depositor's hits bear a star; i = inactive; ? = inconclusive; . = no result given; & = joins results of further samples; [ ] = another dose, or the depositor's remark. Only part of the results is shown (hit frequency here may not be typical).

Molecule	A647 fluor	Resorufin autofl	AID923	TSHR agonist	A488 fluor
CCC(C)(C)C(=O)O	.	.	-2.5%	-5%	.
CCCCC(=O)Nc1nnc(SCC(=O)N2CCN(c3ccccc3OC)CC2)s1	5.4e-09	i	0.7%	7%	i
Cc1nc2sc3c(c2c2nnc(SCC(=O)NCc4ccco4)n12)CCCC3	1.6e-08	i	2.4%	?	i
COc1ccccc1-c1cncnc1NCCNC(C)=O	1e-09	i	0.9%	0%	i
Cc1cccc2cc(C(c3nnnn3CC3CCCO3)N3CCCC4(CCCCC4)C3)c(=O)[nH]c12 (stereo not drawn)	2.3e-08	i	5.4%	4%	i
N/N=C1/c2ccccc2N[C@H]1OC(=O)Nc1cccc(Cl)c1	5e-08	i	-6.1%[11.5 µM]	-11%[11.4 µM]	i
CC(C)C(NC(=O)C1CCCCC1)C(=O)NCc1ccccn1 (stereo not drawn)	3.5e-08	i	1.1%	-2%	i
COc1ccc(Nc2ncc3nc(-c4cccs4)c(=O)n(Cc4cccc(OC)c4)c3n2)cc1	5.8e-09	i	5.8%	-1%	i
COc1ccc2[nH]c(=O)c(C(c3nnnn3CC3CCCO3)N3CCc4ccccc4C3)cc2c1 (stereo not drawn)	6.9e-09	i	4.5%	8%	i
COc1ccccc1N1C(=O)C2C3C=CC(C3)C2C1=O (stereo not drawn)	2.9e-08	i	-0.2%	-3%	i
C/C(N)=C(/C#N)C(=O)COc1ncnc2ccc(Br)cc12	2.5e-09	i	-1.9%	-4%	i
CSc1nc(NCC(C)C)nc(N2CCOCC2)n1	4.3e-09	i	1.4%	10%	i
COc1cc(CNC2CCCCCC2)cc(OC)c1OC	1e-09	i	9.7%	13%	i
CC(C)C1CC(O)(C2(O)CCCCC2)ON1 (stereo not drawn)	2.3e-08	i	0.9%	3%	i
COc1ccc(C2C(C(C)=O)=C(O)C(=O)N2CCO)c(OC)c1 (stereo not drawn)	3.1e-08	i	-0.7%	-2%	i
Cc1oc(-c2ccc(Cl)cc2)nc1CN1CCC(C(=O)NCCCN2CCCC2=O)CC1	.	.	3.2%	-7%	.
CN(C)CCCNS(=O)(=O)c1cc(Cl)ccc1Cl	4e-09	i	-2.4%	1%	i
O=C(NCCCN1CCCC1)C1CCN(C(=O)c2cc3sccc3n2Cc2ccc(F)cc2)CC1	2e-09	i	0.5%	3%	i
O=C(NC1CCN(Cc2ccccc2)CC1)c1ccccc1F	.	.	-0.9%	23%	.
COc1cc2c(cc1C(F)(F)F)N(C(=O)Nc1cc(F)cc(-c3cccnc3)c1)CC2	6.3e-08	i	-2.5%	-34%[inhibitor]	i
CN(C)S(=O)(=O)N(CCN1CCOCC1)Cc1ccccc1F	3.9e-08	i	-0.9%	5%	i
O=C(Cn1nc(-c2ccccc2)nc1-c1ccccc1)N1CCOCC1	7.1e-09	i	-0.2%	-3%	i
Cc1occc1-c1nnc(SCC(=O)NCc2ccc3c(c2)OCO3)n1CC(C)C	5.7e-09	i	0.3%	16µM*	i
CCN1CCCC1CNC(=O)c1cc(NC(C)=O)c(N(C)C)cc1OC (stereo not drawn)	1e-09	i	-1.6%	-2%	i
Cc1ccc(C)c(NC(=O)C2CCCN2C(=O)OC(C)(C)C)c1 (stereo not drawn)	3.8e-09	i	0.0%	-2%	i
FC(F)(F)c1ccccc1-c1cncnc1NCCc1cnc[nH]1	9.6e-09	i	-1.7%	4%	i
CC(=O)N(Cc1ccc2c(c1)OCO2)C1CC(=O)N(CCc2ccccc2)C1=O (stereo not drawn)	.	.	1.3%	3%	.
CCc1ccc(-c2ccc(C(=O)O)cc2)nc1	1.7e-08	i	1.6%	2%	i
COCC(C)NC(=O)c1cc(-c2ccc(OC)c(OC)c2)on1 (stereo not drawn)	2.8e-09	i	-1.1%	-2%[11.4 µM]	i
CSC1=NC(NCCCO)c2c(sc3c2CC(C)(C)OC3)N1 (stereo not drawn)	1e-09	i	7.8%	11%	i

Continuation.
Molecule	A647 fluor	Resorufin autofl	AID923	TSHR agonist	A488 fluor
Cc1ccc(C(=O)CSc2nc3cc(S(=O)(=O)N4CCOCC4)ccc3o2)cc1	6.1e-08	i	2.1%	?	i
CC(C)(C)c1ccccc1OCC(=O)Nc1ncn[nH]1	8.6e-09	i	-0.5%	-3%	i
CCCCn1c(=O)cc(O)c2ccccc21	3.5e-09	i	2.4%	22%	i
Cc1ccccc1-c1nccc(-n2ccnc2)n1	9.8e-09	i	-1.1%	0%	i
CCOCCCNC(=O)CN1CCN(Cc2ccccc2C)C1=O	.	.	0.3%	?	.
CCCn1c(=O)c(C(=O)NCc2ccccn2)c(O)c2ccccc21	.	.	-0.5%	?	.
Cn1c(=O)c2c(SCc3ccccn3)nc(-c3ccccc3)nc2n(C)c1=O	.	.	-1.5%	?	.
CCC(C)(C)NC(=O)CN(C(=O)CCC(=O)Nc1cc(C)ccn1)c1ccc2c(c1)OCO2	1.3e-09	i	-0.3%	0%	i
CCOC(=O)c1ccc2[nH]c(C)c(CN3CCN(C)CC3)c(=O)c2c1	1.2e-09	i	-0.1%	-2%	i
Cc1cc(NS(=O)(=O)c2ccc(NC(=O)CN3C(=O)c4ccccc4C3=O)cc2)nc(C)n1	1e-09	i	-0.8%	0%	i
O=C(c1cccc(F)c1)N1CCN(c2cccc(C(F)(F)F)c2)CC1	6.7e-09	i	-0.5%	24%	i
COc1cc(NCCC(=O)O)c2ncccc2c1	1.7e-09	i	-2.8%[11.5 µM]	-4%[11.4 µM]	i
COC(=O)[C@H](CCSC)NC(=O)Nc1cc(C)ccc1C	2.4e-08	i	1.3%	2%	i
COc1ccc(NC(=O)C2CCN(S(=O)(=O)c3cccc4cccnc34)CC2)cc1	.	.	1.0%	-8%	.
O=C1[C@@H]2C(Cc3ccc(O)cc3)NC3(C(=O)Nc4ccc(F)cc43)[C@@H]2C(=O)N1c1ccc(F)cc1 (stereo partly drawn)	2.7e-08	i	-0.7%	-11%	i
CC(C)=NOCc1ccc(-c2cc(-c3ccccc3)no2)cc1	.	.	-2.9%[11.5 µM]	-3%[11.4 µM]	.
COCCn1c(=O)c(CCc2ccccc2)nc2cnc(OCc3ccccc3)nc21	1e-09	i	5.4%	.	i
COc1ccc(Cn2nnnc2C(c2ccncc2)N2CCOCC2)cc1 (stereo not drawn)	2.4e-08	i	1.2%	-7%	i
C=CCn1c(SCC(=O)NCc2ccco2)nnc1-c1ccc2ccccc2n1	3.4e-09	i	-1.2%	10%	i
Cc1ccccc1Nc1nc(N)nc(CN2C(=O)NC3(CCCCC3C)C2=O)n1 (stereo not drawn)	1e-09	i	-0.1%	-3%	i
Nc1ccc(S(=O)(=O)NC(=O)c2ccccc2)cc1	1.2e-09&1e-09	i	0.7%	12%[25.6 µM]	i
COc1ccc(-c2noc(CSc3nnc(Cc4ccccc4)n3-c3cccc(C)c3)n2)cc1OC	1e-09	i	1.8%	?	i
CCN(CC)c1ccc(NC(=O)c2ccc(Br)o2)c(C)c1	3.4e-08	i	-1.1%	13%	i
CCOc1ccccc1N(CC(=O)NCC1CCCO1)C(=O)CCC(=O)Nc1ccccn1 (stereo not drawn)	1.5e-08	i	0.5%	4%	i
CC1=C(C(N)=O)C(c2ccncc2)n2nc(-c3ccccc3Cl)nc2N1 (stereo not drawn)	.	.	-0.1%	3%	.
C=C(C)Cn1c(NCCOC)nc2c1c(=O)[nH]c(=O)n2C	1e-09	i	-0.7%	3%	i
CN(C)c1cc(NC(=O)CN2CCOCC2)c2ccccc2n1	.	.	-0.5%	?	.
N#Cc1cnc(SCCc2ccccc2)nc1N	1.6e-09	i	2.2%	-2%	i
COC(=O)[C@H](C(C)C)n1c(C)c(C(C)=O)c(C(C)=O)c1C	1e-09	i	-0.3%	25%[11.4 µM]	i
CC(=Nc1ccc(C)c(C)c1)C1=C(O)CSC1=O	.	.	1.5%	11%	.

A second format for some results above.
> Cc1ccccc1Nc1nc(N)nc(CN2C(=O)NC3(CCCCC3C)C2=O)n1 (stereo not drawn)
  A647 fluor = 1e-09
  Resorufin autofl = i
  AID923 = -0.1%
  TSHR agonist = -3%
  A488 fluor = i

> Nc1ccc(S(=O)(=O)NC(=O)c2ccccc2)cc1
  A647 fluor = 1.2e-09&1e-09
  Resorufin autofl = i
  AID923 = 0.7%
  TSHR agonist = 12%[25.6 µM]
  A488 fluor = i

More records follow.
Molecule	A647 fluor	Resorufin autofl	AID923	TSHR agonist	A488 fluor
CS(=O)(=O)N(CC(=O)N1CCN(c2ccccc2)CC1)C1CCCCC1	4e-09	i	-0.8%	30%	i
CCn1c(=O)c2c3c(sc2n2c(SCc4ccc(F)cc4)nnc12)CCCC3	.	.	3.0%	?	.
CCC1Cc2c(nc3c4c(nc(N5CCOCC5)c(C#N)c24)NC(C)=N3)O1 (stereo not drawn)	1e-09	i	7.1%	0%	i
N=C1C(c2nc3ccccc3s2)=C(O)CN1Cc1ccco1	2.5e-09	i	0.6%	12%	i
CCOC(=O)N1CCC(NC(=O)C2CCN(c3nc(-c4ccc(OC)cc4)no3)CC2)CC1	1e-09	i	0.3%	29%	i
c1ccn2c(CNc3ncnc4sccc34)nnc2c1	1e-09	i	1.3%	-4%	i
COc1ccc(Oc2ncc3nc(C)c(=O)n(Cc4cccc(OC)c4)c3n2)cc1	1e-09	i	1.8%	?	i
COc1cccc(NC(=O)c2nnn(CCc3ccccc3)c2N)c1	.	.	-2.5%	-11%	.
CO[C@@H]1COC(=O)[C@H](COCc2ccccc2)NC(=O)C/C=C\[C@@H](C)[C@H](OC)COC(=O)[C@H](COCc2ccccc2)NC(=O)C/C=C\[C@H]1C	.	.	-1.1%[11.5 µM]	1%[11.4 µM]	.
Cn1c(=O)cc(SCC(=O)N2CCOCC2)c2ccc(Cl)cc21	2.4e-09	i	3.3%	2%	i
CCCCn1c(C(C)NC(=O)c2cccs2)nc2ccccc21 (stereo not drawn)	6.6e-09	i	-0.3%	3%[11.4 µM]	i
c1ccc2c(c1)nc(N1CCOCC1)c1nnnn12	.	.	-2.6%	1%	.
CCCC1(CCC)NC(=O)N(CC(=O)Nc2ccccc2OC)C1=O	1.6e-08	i	-0.2%	20%	i
CCCS(=O)(=O)N1CCN(Cc2ccccc2OCC)CC1	3.2e-09	i	-0.2%	4%	i
CCCOc1c(Br)cc(C(=O)NCC)cc1OC	1.9e-08	i	-1.3%	3%	i
COc1ccc(CNC(=O)CN(CC2CCCO2)C(=O)CNS(=O)(=O)c2ccc(C)cc2)cc1 (stereo not drawn)	3.2e-08	i	1.4%	9%	i
